ClpP mod = qHTS Assay for Activators of ClpP | ATP-dependent Clp protease proteolytic subunit (Bacillus subtilis (strain 168)), P80244 | purified B. subtilis ClpP, FRET peptide cleavage, 20 min | Potency, µM (top dose mostly 57.5 µM), for inactives: at the highest dose activity change, negative = active | 340,000 compounds, 1.9% hits; active = well fitted falling curve with a large enough effect; inconclusive = small, poorly fitted or top-dose-only effect; inactive = no such curve, though single readings can be large or run the other way; further: potency means the concentration at half of the fitted maximal effect; the source files actives as falling curves though it sought activators and does not explain the sign; nearly all actives have a fitted effect of over 65% in size; many hits overshoot -100%
Target sequence (P80244 whole entry, looked up): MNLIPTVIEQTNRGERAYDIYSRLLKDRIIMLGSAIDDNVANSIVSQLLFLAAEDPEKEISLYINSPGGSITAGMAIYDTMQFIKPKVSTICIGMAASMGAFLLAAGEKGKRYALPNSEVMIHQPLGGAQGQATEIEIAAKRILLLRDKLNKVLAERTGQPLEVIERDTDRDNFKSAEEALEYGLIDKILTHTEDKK
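ClpP 10 microg/mL final, pH 8 Tris/KCl buffer with BSA, glycerol, Tween-20; compound pinned in; FRET-FV substrate; RT 20 min; Ex320/Em430; ΔFRET vs ADEP 5.8 microM, DMSO, no enzyme.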
gsp ag = gsp mutant agonism | gsp mutant cells, cAMP HTRF, 30 min; control for the full effect not named in the record | Potency, µM (series often up to 76.9 µM), for inactives: at the highest dose activation (cAMP increase), hits mostly activators | 340,000 compounds, 0.13% hits | AID 624287; active = well fitted activation curve with a large enough effect; inconclusive = small, poorly fitted or top-dose-only effect, or another doubt; inactive = no such curve, though single readings can be large or run the other way; cell line not stated here;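 further: phosphodiesterase inhibitor Ro 20-1724 added with compounds to block cAMP breakdown; potency means the concentration at half of the fitted maximal effect; nearly all actives have a fitted effect of over 60% in size; about a fifth of the inactives were tested at one dose only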
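Cells stably selected in G418 were plated at 2000/well, grown 16-24 hr, then given compounds in DMSO with the PDE inhibitor […] (300 uM solution added) for 30 min at 37C; cAMP was read by HTRF.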
gsp antag = antagonizes gsp, the McCune-Albright syndrome mutation | AID 624288 | 340,000 compounds, 0.4% hits | Potency, µM (titrated, usually from 76.9 µM), for the others: top-dose activity change, negative = inhibition, actives largely listed as inhibitors | gsp-mutant cells, cAMP HTRF, 30 min; control for the full effect not named in the record; active = falling curve of any shape with a large fitted effect; inconclusive = falling curve, mostly with a smaller effect; inactive = flat or rising curve; cell line not stated here;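 further: intracellular cAMP measured with PDE inhibitor Ro 20-1724 present during compound exposure; potency means the concentration at half of the fitted maximal effect; on the % scale 0 is the no-effect control and ±100 the full control effect; nearly all actives have a fitted effect of over 65% in size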
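Cells in G418 medium, seeded 16-24 h, 37C; buffer exchange to DPBS + 1 mM CaCl2, 0.5 mM MgCl2, 0.05% BSA; cpds in DMSO + […] (300 uM stock), 30 min 37C; HTRF cAMP detection.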
TRPML1 agonist = human mucolipin-1 channel agonism. activation, % (concentration not given with the values). Q9GZU1. 410,000 compounds, 0.12% hits. TRPML1-expressing cells, Ca2+ dye fluorescence, FDSS; host cell line not named in the record; reference of the full effect not given here; in the data active = activation above about 50%; inconclusive = about 30% to 50%; inactive = below about 30%; further: 0% is about no effect; the text of the record puts the active cut at 80%
Target sequence (Q9GZU1 whole entry, looked up): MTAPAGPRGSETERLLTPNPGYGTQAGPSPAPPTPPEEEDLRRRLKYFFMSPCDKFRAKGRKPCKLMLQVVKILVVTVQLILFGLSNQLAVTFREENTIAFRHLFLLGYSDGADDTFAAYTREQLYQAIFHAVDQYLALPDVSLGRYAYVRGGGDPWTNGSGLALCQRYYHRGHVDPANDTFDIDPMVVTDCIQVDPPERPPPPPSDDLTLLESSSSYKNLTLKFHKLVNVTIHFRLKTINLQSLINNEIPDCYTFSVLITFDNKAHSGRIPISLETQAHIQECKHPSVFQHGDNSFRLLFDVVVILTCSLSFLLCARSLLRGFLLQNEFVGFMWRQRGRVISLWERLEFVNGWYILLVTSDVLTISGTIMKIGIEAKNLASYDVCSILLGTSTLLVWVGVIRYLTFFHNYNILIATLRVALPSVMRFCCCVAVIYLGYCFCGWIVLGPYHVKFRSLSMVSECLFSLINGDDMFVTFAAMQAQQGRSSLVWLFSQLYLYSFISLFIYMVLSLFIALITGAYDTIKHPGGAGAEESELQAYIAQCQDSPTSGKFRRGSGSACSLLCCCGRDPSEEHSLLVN
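Kinetic FDSS Ca2+ read in Tet-induced TRPML1-DL cells (ABD Ca8 dye plus quencher, 45-90 min RT loading): baseline, then compound, then 110 s agonist window; EC80 agonist 54-4 at 4uM final added afterwards for a 110 s antagonist window.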
Menin MLL FP FL = displaces fluorescein MLL peptide from human menin; Fluorescence polarization, fluorescein-MLL peptide displacement from menin; FP activity change, % at 61.4 µM; 290,000 tested, under 10 active; AID 1766; inconclusive = falling polarisation curve, or a change in total fluorescence; inactive = total fluorescence flat and polarisation flat or rising; no compound was filed as active; the % refers to the polarisation; negative = inhibition;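 further: % of control where 0% means no effect; inhibitors lower the polarisation; unlabelled MLL peptide was the positive control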
TRPML1 blocker = inhibitors of human TRPML1 channel | TRPML1-inducible cells, Ca2+ dye fluorescence, FDSS; stronger effect = lower value; inhibition of EC80 agonist-evoked calcium signal | 390,000 compounds, 0.02% hits | activity change, negative = inhibition, % (test concentration not listed) | AID 624415 | Q9GZU1; in the data active means activity change below about -50%; inconclusive means about -30% to -50%; inactive means above about -30%;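 further: stimulus is agonist 54-4 at its EC80 concentration; on the % scale 0 is the no-effect control and ±100 the full control effect; compound concentration not given in the record; the text of the record puts the active cut at -80%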
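Calcium fluorescence in TRPML1-DL cells induced overnight with Tet: a 110 s read after compound pin addition, then a 110 s antagonist read after challenge with 54-4 at 4 uM final (EC80).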
Starred values were filed as active, the others as inactive; ? = inconclusive; . = no result given; & = joins results of further samples; [ ] = remark or other dose.

1. COC(=O)c1ccccc1S(=O)(=O)N(Cc1ccco1)Cc1cc2cc(OC)ccc2[nH]c1=O
2. CC(=O)N(O)CCCCCNC(=O)CCC(=O)N(O)CCCCCNC(=O)CCC(=O)N(O)CCCCCNC(=O)CCC(=O)O
3. CC1(C)CN(c2cccc(-c3ccnc4ncnn34)c2)C1=O
4. NC(=O)c1ccc(NC(=O)COC(=O)C2(c3cccc(F)c3)CCCC2)cc1
5. Cc1c(Br)c(O)c(Br)c2sc(=O)oc12
Assay by compound	1	2	3	4	5
gsp antag	-9%	10%	8%	-11%	-7%
TRPML1 agonist	0.0	-0.3	-0.4	0.5	0.2
ClpP mod	?	1.5%	-3.4%	1.1%	-2.7%
TRPML1 blocker	2	-1	-6	-4	23
Menin MLL FP FL	3.0	.	0.3	1.4	4.0
gsp ag	1%	.	-15%[15.4 µM]	-35%[inhibitor]	13%

6. CC(=O)c1c(N2CCCCC2)nc(=O)n(-c2ccccc2)c1C
7. O=C(CCCn1c(=O)[nH]c2cc(Cl)ccc2c1=O)NCCCN1CCN(c2ccc(F)cc2)CC1
8. CC(=O)N/C(=C/c1ccccc1)C(=O)NCCO
9. CC(=O)c1cn(CCC(C)C)c(=O)[nH]c1=O
10. Cc1ccc(Sc2ncnc(N)c2[N+](=O)[O-])cc1
Assay by compound	6	7	8	9	10
gsp antag	-3%	-20%	2%	11%	-3%
TRPML1 agonist	1.2	-0.6	0.3	1.3	3.9
ClpP mod	-0.6%	-0.8%	0.9%	1.5%	0.8%
TRPML1 blocker	23	-3	7	17	13
Menin MLL FP FL	-0.1	5.9	-1.7	-1.9	0.7
gsp ag	-11%	4%	-9%	18%	?

11. Cc1cc(Cl)c2oc(C(=O)NCCC3CCCCO3)c(C)c2c1 (configuration not stated)
12. CCc1nnc(NC(=O)c2sc3nc4cc(C)ccc4cc3c2N)s1
13. CCOc1ccc(CCNC(c2nnc(-c3ccccc3)o2)c2ccccc2Cl)cc1OCC (configuration not stated)
14. Cc1ccc(-n2ncc3c2CCCC3NC(=O)CCc2cnccn2)cc1C (configuration not stated)
15. CCN(CC(=O)Nc1ccccc1C(F)(F)F)C(=O)c1cc(-c2ccccc2)nn1-c1ccccc1
Assay by compound	11	12	13	14	15
gsp antag	-14%	-8%	.	0%	-14%
TRPML1 agonist	0.5	1.8	0.3	0.7	2.5
ClpP mod	.	-1.0%	-1.7%	0.4%	-0.3%
TRPML1 blocker	7	0	-27	-25	1
Menin MLL FP FL	.	?	.	-3.6	.
gsp ag	12%[15.4 µM]	-2%	.	-7%	?

16. CC(=O)Nc1sc(NC(=O)c2ccco2)nc1-c1cccs1
17. CN(Cc1c(C(=O)N/N=C/c2cccc(O)c2)nnn1-c1nonc1N)c1ccccc1
18. COc1ccc2occ(CC(=O)Nc3ccc(S(=O)(=O)Nc4nc(C)cc(C)n4)cc3)c2c1
19. CCOC(=O)c1nnn(-c2nonc2N)c1CNc1ccccc1
20. CCOC(=O)c1c(C)nc2cc(C)cc(C)n12
Assay by compound	16	17	18	19	20
gsp antag	-7%	?	.	3%	9%
TRPML1 agonist	-0.6	0.2	0.4	-0.3	-0.4
ClpP mod	.	-3.6%	0.7%	-0.9%	-2.3%
TRPML1 blocker	16	-19	-4	-14	-1
Menin MLL FP FL	-1.2	-12	.	-0.8	-4.7
gsp ag	-32%[inhibitor]	27%	.	?	-12%

Sorted by SMILES length (rising): nine of the compounds above.
9. CC(=O)c1cn(CCC(C)C)c(=O)[nH]c1=O
19. CCOC(=O)c1nnn(-c2nonc2N)c1CNc1ccccc1
16. CC(=O)Nc1sc(NC(=O)c2ccco2)nc1-c1cccs1
11. Cc1cc(Cl)c2oc(C(=O)NCCC3CCCCO3)c(C)c2c1 (configuration not stated)
12. CCc1nnc(NC(=O)c2sc3nc4cc(C)ccc4cc3c2N)s1
13. CCOc1ccc(CCNC(c2nnc(-c3ccccc3)o2)c2ccccc2Cl)cc1OCC (configuration not stated)
17. CN(Cc1c(C(=O)N/N=C/c2cccc(O)c2)nnn1-c1nonc1N)c1ccccc1
Assay by compound	9	19	16	11	12	13	17
gsp antag	11%	3%	-7%	-14%	-8%	.	?
TRPML1 agonist	1.3	-0.3	-0.6	0.5	1.8	0.3	0.2
ClpP mod	1.5%	-0.9%	.	.	-1.0%	-1.7%	-3.6%
TRPML1 blocker	17	-14	16	7	0	-27	-19
Menin MLL FP FL	-1.9	-0.8	-1.2	.	?	.	-12
gsp ag	18%	?	-32%[inhibitor]	12%[15.4 µM]	-2%	.	27%

18. COc1ccc2occ(CC(=O)Nc3ccc(S(=O)(=O)Nc4nc(C)cc(C)n4)cc3)c2c1
15. CCN(CC(=O)Nc1ccccc1C(F)(F)F)C(=O)c1cc(-c2ccccc2)nn1-c1ccccc1
Assay by compound	18	15
gsp antag	.	-14%
TRPML1 agonist	0.4	2.5
ClpP mod	0.7%	-0.3%
TRPML1 blocker	-4	1
Menin MLL FP FL	.	.
gsp ag	.	?

(next part)
21. CCc1ccc(C(=O)CSc2nnc(C3CC3)n2C2CC2)cc1
22. Cc1cccc(/C(N)=N/OC(=O)CCCN2C(=O)c3ccccc3C2=O)c1
23. C=CCn1cnc2c(c1=O)c1nc3ccccc3nc1n2/N=C/c1cc(OC)c(OC)c(OC)c1
24. COCC1CCN(C(=O)C2CCC(=O)N(Cc3cccc(C(F)(F)F)c3)C2)CC1 (configuration not stated)
25. Cn1c(=O)c2[nH]c(CCCCc3nc4ccccc4[nH]3)nc2n(C)c1=O
Assay by compound	21	22	23	24	25
gsp antag	3%	-7%	-11%	4%	11%
TRPML1 agonist	1.4	2.2	-0.2	-0.4	-0.2
ClpP mod	-0.9%	3.9%	-0.1%	-3.5%	0.8%
TRPML1 blocker	-21	-13	-13	6	7
Menin MLL FP FL	.	3.9	3.2	-0.1	.
gsp ag	0%	-19%	6%	-19%	0%[15.4 µM]

26. Cc1ccc(-c2csc(NC(=O)CN3CCOCC3)n2)cc1C
27. O=C(Nc1ccc2c3c(cccc13)CC2)c1ccccc1
28. Cc1cc(C)c(S(=O)(=O)N2CCOC2CNC(=O)C(=O)NCCN2CCOCC2)c(C)c1 (configuration not stated)
29. O=C(CSc1n[nH]c(-c2ccccc2)n1)Nc1ccc(N2CCOCC2)cc1
30. O=C(Nc1ccc(Cl)c(Cl)c1)N(CCCN1CCOCC1)Cc1cccnc1
Assay by compound	26	27	28	29	30
gsp antag	0%	.	7%	-4%	5%
TRPML1 agonist	-0.2	-0.3	0.0	3.6	0.5
ClpP mod	.	1.0%	-1.4%	-1.5%	.
TRPML1 blocker	10	15	-1	16	-21
Menin MLL FP FL	-2.4	.	-10	-0.2	0.9
gsp ag	-22%	-21%	-23%	11%	9%[15.4 µM]

31. NC(=S)N=Nc1c(O)[nH]c2c(Cl)cc(Cl)cc12
32. O=C(Nc1ccncc1)c1ccccc1-c1ccccc1
33. Cc1ccc(/C=N/NC(=O)c2cc(-c3ccc(C)o3)[nH]n2)cc1
34. O=C(Nn1cnnc1)c1cc(Cl)cc(Cl)c1
35. COc1ccc(NC(=O)N2CCCc3cc(C)ccc32)c(OC)c1
Assay by compound	31	32	33	34	35
gsp antag	3%	6%	15%	5%	-2%
TRPML1 agonist	2.9	-1.1	2.6	-0.3	-0.7
ClpP mod	.	.	.	.	0.3%
TRPML1 blocker	14	-6	4	-10	-3
Menin MLL FP FL	.	3.0	-0.8	-0.8	-0.7
gsp ag	-5%	10%[15.4 µM]	21%[15.4 µM]	16%[15.4 µM]	?

36. COc1ccc2c(c1)C(=O)N1[C@H]3c4cc(OC)ccc4OC[C@@H]3[C@H](c3ccccc3)[C@]1(C)C(=O)N2
37. Cc1csc(SCC(=O)Nc2nccs2)n1
38. CCn1c(COc2cccc(C)c2)nnc1SCC(=O)Nc1cccc(C(=O)O)c1
39. O=C(NCCN1CCOCC1)C1CC(=O)N(c2ccc(F)c(Cl)c2)C1 (configuration not stated)
40. O=C(NCCc1ccccc1)C(=O)NCC1CCCN1S(=O)(=O)c1ccccc1 (configuration not stated)
Assay by compound	36	37	38	39	40
gsp antag	-14%	6%	7%	10%	-7%
TRPML1 agonist	0.4	0.3	1.4	5.3	0.8
ClpP mod	?	-19%	-2.6%	-0.5%	1.9%
TRPML1 blocker	6	-15	-5	20	-14
Menin MLL FP FL	.	.	-1.8	1.0	.
gsp ag	-17%	-4%[15.4 µM]	5%	-7%	-25%

41. COC(=O)c1ccc(OC(=O)CCN2C(=O)C3CCCCC3C2=O)cc1 (configuration not stated)
42. C=CCn1nnnc1SCC(=O)Nc1cccc(C(F)(F)F)c1
43. O=C(COc1ccccc1)Nc1nnc(-c2ccccc2)o1
44. Cc1cccc(-c2nc(CCNC(=O)c3ccco3)cs2)c1
45. COc1cc(CN2CC(C)CC(C)C2)cc([N+](=O)[O-])c1O (configuration not stated)
Assay by compound	41	42	43	44	45
gsp antag	-21%	11%	2%	.	-1%
TRPML1 agonist	1.6	0.1	0.1	2.9&-0.9	-0.8
ClpP mod	0.5%	-1.6%	-4.9%	-3.1%&-4.4%	5.6%
TRPML1 blocker	-11	10	9	-27&10	-13
Menin MLL FP FL	0.6	.	1.0	.	5.9
gsp ag	-22%[15.4 µM]	10%[15.4 µM]	-42%[inhibitor]	-33%[inhibitor]	-13%

46. CCOc1ccc(N(CC(=O)N2CCN(c3ccccc3)CC2)S(=O)(=O)c2c(C)noc2C)cc1
47. Cc1c(C(=O)Nc2ccc3c(c2)OCCO3)sc2nc(-c3ccccc3)cn12
48. Cn1nc(C(=O)N2CCN(c3ccc([N+](=O)[O-])cc3)CC2)c2c1-c1ccccc1S(=O)(=O)C2
49. CN(C)c1cccc(C(=O)N(C)C2CCCN(Cc3ccccc3F)C2)c1 (configuration not stated)
50. Cc1cc(C)c(S(=O)(=O)Cc2ccccc2)c(OC(C)C)n1
Assay by compound	46	47	48	49	50
gsp antag	-13%	?	-4%	3%	-5%
TRPML1 agonist	0.5	3.3	0.0	0.5	0.5
ClpP mod	0.1%	-12%	0.4%	-3.3%	-0.2%
TRPML1 blocker	-16	-8	9	-6	3
Menin MLL FP FL	-1.9	3.4	0.1	-2.0	-0.5
gsp ag	1%	-22%	?	-36%[inhibitor]	12%

51. O=C(NCCCCNC(=O)c1ccccc1Br)c1ccccc1Br
52. CCOc1ccc(CCNC(=O)Nc2ccccc2)cc1OCC
53. O=C(NCC1COc2ccccc2O1)c1ccc(Cl)cc1 (configuration not stated)
54. Cc1cccc2sc(N(CCCN(C)C)C(=O)CCS(=O)(=O)c3ccccc3)nc12
Assay by compound	51	52	53	54
gsp antag	-6%	11%	-2%	13%
TRPML1 agonist	0.0	-0.7	-0.4	1.5
ClpP mod	.	-7.2%	0.0%	-2.5%
TRPML1 blocker	-7	10	1	4
Menin MLL FP FL	.	-2.2	1.9	.
gsp ag	5%[15.4 µM]	?	-54%[inhibitor]	?

Screens (PubChem BioAssay)
